# Calb biofilm kill: clotrimazole potentiators killing C. albicans biofilm, primary screen, 4-compound mixtures | C. albicans biofilm persisters + clotrimazole, fluorescence viability; primary screen in compound mixtures of four per well | inhibition, % at 7.6 µM | 0.02% of 120,000 active;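 active = inhibition above 30.3% in the primary screen of four-compound pools, then above 30% when the compound was retested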;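 note: compounds exposed to preformed 24 h biofilms for 48 h; the number belongs to the whole pool; some results filed as inactive read as strong as hits; inactives centre near 12; 0% = biofilm with clotrimazole alone and 100% = kill control; retested singly at about 60 µM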
#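 System: C. albicans CAF4-2 wild-type biofilms; Medium: RPMI/MOPS medium, pH 7.0; Reagent: Clotrimazole, 50 µg/mL; Times: biofilm formation 24 h, compound exposure 48 h, 37 °C; Detection: 2-h Alamar Blue fluorescence, 535/590 nm excitation/emission; Evaluation: percent inhibition of biofilm viability.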
# Starred values were filed as active, the others as inactive. A portion of the library; rates above refer to the full screens.
# Sample of the layout, 6 compounds:
SMILES,Calb biofilm kill
CN(c1ccccc1)c1ccc(/C=C(\CCC(=O)O)c2nc3ccccc3s2)cc1[N+](=O)[O-],9
CC(=O)c1ccc2c(c1)OCCOCCOc1ccc(C(C)=O)cc1OCCOCCO2,18
O=C(NNC(=O)c1cnccc1C(F)(F)F)c1cccc(Cl)c1,22
Cc1nc(Cl)sc1C(=O)Nc1cccc(Cl)c1C,11
C=CCOC(=O)C1=C[C@H](c2coc3ccccc3c2=O)C[C@H](OCc2ccc(CO)cc2)O1,12
CC(CCc1ccccc1)NC(=O)C(=O)NCc1ccccc1 (stereo unspecified),6

# Main list, repeating the preview:
SMILES,Calb biofilm kill
CN(c1ccccc1)c1ccc(/C=C(\CCC(=O)O)c2nc3ccccc3s2)cc1[N+](=O)[O-],9
CC(=O)c1ccc2c(c1)OCCOCCOc1ccc(C(C)=O)cc1OCCOCCO2,18
O=C(NNC(=O)c1cnccc1C(F)(F)F)c1cccc(Cl)c1,22
Cc1nc(Cl)sc1C(=O)Nc1cccc(Cl)c1C,11
C=CCOC(=O)C1=C[C@H](c2coc3ccccc3c2=O)C[C@H](OCc2ccc(CO)cc2)O1,12
CC(CCc1ccccc1)NC(=O)C(=O)NCc1ccccc1 (stereo unspecified),6
Cc1cc(C)nc(NS(=O)(=O)c2ccc(N/C=C\C(=O)c3cccs3)cc2)n1,9
O=C1CS/C(=N/N=C/c2cccs2)N1Cc1ccc(F)cc1,24
CCCn1c(SCC(=O)NC2CCCCC2)nnc1-c1ccccn1,10
CN(C)C(=O)C1CCC(=O)N1Cc1cccs1 (stereo unspecified),-3
Cc1ccc(CCNC(=O)CN(C)S(=O)(=O)c2ccc3c(c2)n(C)c(=O)c(=O)n3C)cc1,28
CN1CCN(c2ncnc3sc(-c4ccccc4)cc23)CC1,2
O=C1NCC(=O)N(Cc2ccccc2)/C1=C/c1ccccc1,22
NNc1nc2ccccc2nc1C(F)(F)F,16
O=C(CSc1nc2ccccc2o1)N1c2ccccc2Sc2ccc(C(F)(F)F)cc21,20
Cc1ccc(OC(C)C(=O)N(Cc2cccs2)C2CCS(=O)(=O)C2)cc1C (stereo unspecified),13
COc1ccc(C(=O)[C@H]2[C@H]3C(=O)N(c4ccc(C)cc4)C(=O)[C@H]3C3C=CC=NN32)cc1 (stereo partly specified),20
COc1cc(C(=O)Nc2cccc(S(=O)(=O)N3CCCC3)c2)cc(OC)c1C,21
Cc1ccc(/C(N)=N/OC(=O)CSc2ccccc2)cc1,20
CCN(CC)C(=O)Oc1cc(=O)n2c3c(cccc13)CCC2,6
O=C(Nc1cccc(S(=O)(=O)N2CCCCC2)c1)c1ccccn1,14
Cc1cccc(C)c1OCC(O)CN(Cc1ccccc1O)C1CCCCC1 (stereo unspecified),3
C=CCOC(=O)C1=C[C@@H](c2csc3ccccc23)C[C@@H](OCc2ccc(CO)cc2)O1,15
O=C(CCN1CCN(c2ccccc2)CC1)NNC(=S)Nc1ccccc1Cl,17
CCOCCc1c(O)nc(SCC)[nH]c1=O,23
COCCN(CC(=O)NC1CCCCC1)C(=O)/C=C/C(=O)c1ccc(OC)cc1O,6
CC(=O)N1C(=O)N(C(C)=O)C2C1N(C)C(=O)N2C(C)=O (stereo unspecified),6
CCOc1ccc2[nH]c3c(NCCc4ccc(OC)c(OC)c4)ncnc3c2c1,0
Cc1ccc(Cl)cc1N(CC(=O)NCc1ccc2c(c1)OCO2)S(C)(=O)=O,10
O=C(/C=C/c1ccc(F)cc1)NCC1(c2ccccc2)CCOCC1,16
CC1(NC(=S)N(CCO)CCO)CCS(=O)(=O)C1 (stereo unspecified),8
COc1ccc(C=NCC2OCCc3ccccc32)cc1OC (stereo unspecified),23
CCc1cc(-c2n[nH]c(=S)n2CC(C)C)cs1,16
Cc1c(-n2c(SCC(=O)O)nnc2-c2ccccc2Br)c(=O)n(-c2ccccc2)n1C,7
COc1ccc(N2CCN(C(c3cc(OC)ccc3OC)c3nnnn3CC3CCCO3)CC2)cc1 (stereo unspecified),7
CC#CC[N+](C)(CC#CC)CC(=O)c1ccccc1,21
COc1cc(CNCc2ccccn2)ccc1OCC(=O)NC1CCCCC1,25
Cc1nn(CC(=O)NCCCc2ccccc2)c(C)c1[N+](=O)[O-],2
Cc1noc(C)c1S(=O)(=O)N(Cc1ccccc1)C(C)C,22
Cc1cc2ccccn2c1C(=O)c1ccc(NN)c([N+](=O)[O-])c1,5
COc1cccc(C(=O)C2CCCN(Cc3ccc(OC)c(Cn4cncn4)c3)C2)c1 (stereo unspecified),28
COc1c2ccoc2c(OC[C@@H](O)C(C)(C)OC)c2oc(=O)ccc12,12
CCc1ccc(OC2=NS(=O)(=O)c3ccccc32)cc1,17
Cc1ccc(NCC(=O)N/N=C/c2cccc(Br)c2)cc1,12
O=C(OCC(=O)N1CCCCCC1)c1ccc(S(=O)(=O)N2CCOCC2)cc1,8

# As a short view, part of the list above.
SMILES,Calb biofilm kill
CCc1ccc(OC2=NS(=O)(=O)c3ccccc32)cc1,17
Cc1ccc(NCC(=O)N/N=C/c2cccc(Br)c2)cc1,12

# The list goes on.
SMILES,Calb biofilm kill
CCOC(=O)c1nnc2cc(C)nn2c1C,15
CNS(=O)(=O)c1cccc(C(=O)OCC(=O)Nc2cc(F)ccc2F)c1,27
COc1ccc(C(=O)N/C(=C/c2cccc3ccccc23)C(=O)NCCc2c[nH]c3ccccc23)cc1OC,19
CC(C)c1onc(C(=O)N(C)C2CCCCC2)c1[N+](=O)[O-],15
CCc1ccccc1NC(=S)N(CCCN1CCOCC1)Cc1cccs1,4
Cc1nnc(N/N=C/c2ccco2)n1N,19
CN(C)C(=S)Nc1ccc2c(c1)OCO2,12
COc1ccccc1/C=N/NC(=O)c1ccc(Br)cc1,9
CC1CC(C)CN(CCCNC(=O)c2cc3c(=O)[nH]c4ccccc4c3n2C)C1 (stereo unspecified),9
Cc1cccc(Nc2nc(N3CCCCC3)nc(N3CCCCC3)n2)c1,14
C=CCOc1ccccc1CNCCNC(=O)c1nonc1N,13
COc1cc(O)c(C(CCN2CCN(c3ccccc3)CC2)c2ccc3c(c2)OCO3)c(OC)c1 (stereo unspecified),10
Cc1cc(C)cc(OCC(=O)N2N=C(c3cccnc3)CC2(O)C(F)(F)F)c1 (stereo unspecified),11
O=C(Nc1ccc(Cl)cn1)C1COc2ccccc2O1 (stereo unspecified),4
COc1ccc(NC(=O)C(C)SCc2ccccc2)cc1 (stereo unspecified),27

# 3 entries drawn at random from the list so far, as already listed:
SMILES,Calb biofilm kill
CNS(=O)(=O)c1cccc(C(=O)OCC(=O)Nc2cc(F)ccc2F)c1,27
C=CCOc1ccccc1CNCCNC(=O)c1nonc1N,13
Cc1cc(C)cc(OCC(=O)N2N=C(c3cccnc3)CC2(O)C(F)(F)F)c1 (stereo unspecified),11

# The list continues.
SMILES,Calb biofilm kill
Cc1cc(OCC(=O)N(C)C2CCCCC2)cc(C)c1Cl,12
CCN1C(=O)C(=O)N(CC(=O)Nc2ccccc2Oc2ccccc2)C1=O,-2
CCOc1ccc(S(=O)(=O)NC(C)C)cc1C(N)=O,10
CC(C)(C)NC(=O)NC(=O)COC(=O)c1cccc(NS(=O)(=O)c2ccc(F)c(F)c2)c1,25
Cc1ccc(Nc2nc(C)nc3c2oc2ccccc23)cc1,14
CC(=O)c1cc2c(C)c(C(=O)c3ccccc3)oc2cc1O,13
CCOC(=O)N1CCN(C(=O)CSc2ccc3nnc(CCNC(=O)c4ccccc4)n3n2)CC1,10
O=C(Nc1cccc(NC(=O)C2CC2)n1)C1CC1,8
Cc1cccc(NC(=S)N2CCCCC2)c1,12
CCCCC(=O)NC(=S)NNC(=O)c1ccc(Cl)cc1Cl,41
CC(C)(C)c1csc(NC(=O)Nc2ccccc2)n1,21
Cc1cc(CNC(=O)COc2cc(F)ccc2[N+](=O)[O-])c2ccccc2n1,6
CCn1c(C)nc2cc(C(=O)NNC(=O)Nc3ccc(Cl)c(Cl)c3)ccc21,8
COc1ccc(CCNC(=S)NCCc2c[nH]c3ccccc23)cc1,7

# By substructure: the compounds so far containing an aryl thioether with sulfur outside any ring
SMILES,Calb biofilm kill
CCCn1c(SCC(=O)NC2CCCCC2)nnc1-c1ccccn1,10
O=C(CSc1nc2ccccc2o1)N1c2ccccc2Sc2ccc(C(F)(F)F)cc21,20
Cc1ccc(/C(N)=N/OC(=O)CSc2ccccc2)cc1,20
CCOCCc1c(O)nc(SCC)[nH]c1=O,23
Cc1c(-n2c(SCC(=O)O)nnc2-c2ccccc2Br)c(=O)n(-c2ccccc2)n1C,7
CCOC(=O)N1CCN(C(=O)CSc2ccc3nnc(CCNC(=O)c4ccccc4)n3n2)CC1,10
